Bioassay records (PubChem)
A1 apoptosis 2: compounds inhibiting A1, read as caspase activation. MEF A1-2A-BIM cells, caspase-Glo luminescence, 3 h; percent of clofoctol response, DMSO zero. caspase activation, % (concentration not given with the values). 24,000 tested, under 10 active. AID 2465; in the data active means caspase activation above about 5.9%;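 further: wells of about 30 µL received 50 nL stock; the first replicate is given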
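Material: A1-2A-BIM-expressing MEF cells. Buffer or medium: RPMI-1640 plus 10% FBS. Incubation: cells settled overnight, compound exposure 3 h at 37 °C, 5% CO2. Signal: Caspase-Glo 3/7 luminescence, 1 h at room temperature.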
The depositor's hits bear a star. The list is partial (hit frequency here may not be typical).

SMILES	A1 apoptosis 2
COc1ccc(NC(=O)N(C)C[C@@H]2Oc3c(NS(=O)(=O)c4ccc(C)cc4)cccc3C(=O)N([C@@H](C)CO)C[C@@H]2C)cc1	-0.3
CC(C)NC(=O)Nc1cccc2c1O[C@H](CN(C)C(=O)Nc1ccc3c(c1)OCO3)[C@@H](C)CN([C@@H](C)CO)C2=O	0.8
Cc1ccc(S(=O)(=O)N(C)C[C@@H]2Oc3ccc(NS(C)(=O)=O)cc3C(=O)N([C@H](C)CO)C[C@@H]2C)cc1	-0.9
COc1ccc(S(=O)(=O)Nc2ccc3c(c2)C(=O)N([C@@H](C)CO)C[C@@H](C)[C@@H](CN(C)C(=O)Nc2ccccc2)OCCCC[C@H](C)O3)cc1	-0.3
C[C@H](CO)N1C[C@H](C)[C@@H](CN(C)C(=O)CCC(F)(F)F)OCCCC[C@H](C)Oc2ccc(NC(=O)c3ccncc3)cc2C1=O	0.7
C[C@@H]1CCCCO[C@@H](CN(C)S(C)(=O)=O)[C@@H](C)CN([C@H](C)CO)C(=O)c2cc(NS(=O)(=O)c3cn(C)cn3)ccc2O1	-0.3
Cc1noc(C)c1S(=O)(=O)Nc1ccc2c(c1)C(=O)N([C@@H](C)CO)C[C@@H](C)[C@H](CN(C)C(=O)Cc1ccccc1)OCCCC[C@H](C)O2	2.7
C[C@@H]1CCCCO[C@H](CN(C)Cc2ccc(C(=O)O)cc2)[C@H](C)CN([C@H](C)CO)C(=O)c2cc(N(C)C)ccc2O1	-0.2
Cc1ccc(S(=O)(=O)Nc2ccc3c(c2)C(=O)N([C@H](C)CO)C[C@H](C)[C@@H](CN(C)C(=O)Nc2c(C)noc2C)O3)cc1	-0.2
C[C@@H]1CCCCO[C@@H](CN(C)C(=O)NC2CCCCC2)[C@@H](C)CN([C@H](C)CO)C(=O)c2cc(NS(=O)(=O)c3cn(C)cn3)ccc2O1	0.1
C[C@@H]1CCCCO[C@@H](CN(C)C(=O)C2CCCCC2)[C@H](C)CN([C@H](C)CO)C(=O)c2cc(NS(=O)(=O)c3cccs3)ccc2O1	-1.7
C[C@@H]1CN([C@@H](C)CO)C(=O)Cc2cc(NC(=O)Nc3ccc(C(F)(F)F)cc3)ccc2O[C@H]1CN(C)Cc1ccccc1	-0.3

Some of the entries so far, in markdown.
| SMILES | A1 apoptosis 2 |
| --- | --- |
| CC(C)NC(=O)Nc1cccc2c1O[C@H](CN(C)C(=O)Nc1ccc3c(c1)OCO3)[C@@H](C)CN([C@@H](C)CO)C2=O | 0.8 |
| Cc1ccc(S(=O)(=O)N(C)C[C@@H]2Oc3ccc(NS(C)(=O)=O)cc3C(=O)N([C@H](C)CO)C[C@@H]2C)cc1 | -0.9 |
| COc1ccc(S(=O)(=O)Nc2ccc3c(c2)C(=O)N([C@@H](C)CO)C[C@@H](C)[C@@H](CN(C)C(=O)Nc2ccccc2)OCCCC[C@H](C)O3)cc1 | -0.3 |
| C[C@H](CO)N1C[C@H](C)[C@@H](CN(C)C(=O)CCC(F)(F)F)OCCCC[C@H](C)Oc2ccc(NC(=O)c3ccncc3)cc2C1=O | 0.7 |
| C[C@@H]1CCCCO[C@@H](CN(C)S(C)(=O)=O)[C@@H](C)CN([C@H](C)CO)C(=O)c2cc(NS(=O)(=O)c3cn(C)cn3)ccc2O1 | -0.3 |
| Cc1noc(C)c1S(=O)(=O)Nc1ccc2c(c1)C(=O)N([C@@H](C)CO)C[C@@H](C)[C@H](CN(C)C(=O)Cc1ccccc1)OCCCC[C@H](C)O2 | 2.7 |

Given as comma-separated lines: part of the list above
Compound,A1 apoptosis 2
C[C@H](CO)N1C[C@H](C)[C@@H](CN(C)C(=O)CCC(F)(F)F)OCCCC[C@H](C)Oc2ccc(NC(=O)c3ccncc3)cc2C1=O,0.7
C[C@@H]1CCCCO[C@@H](CN(C)S(C)(=O)=O)[C@@H](C)CN([C@H](C)CO)C(=O)c2cc(NS(=O)(=O)c3cn(C)cn3)ccc2O1,-0.3

Going on with the list.
SMILES	A1 apoptosis 2
C[C@@H]1CCCCO[C@@H](CN(C)Cc2ccc(C(F)(F)F)cc2)[C@H](C)CN([C@@H](C)CO)C(=O)c2cc(NC(=O)Nc3cccc4ccccc34)ccc2O1	-0.5
C[C@H](CO)N1C[C@H](C)[C@@H](CN(C)C(=O)Nc2ccccc2)Oc2c(NS(=O)(=O)c3ccc(F)cc3)cccc2C1=O	1.4
COc1ccc(CN(C)C[C@@H]2Oc3c(NC(=O)c4cc(C)nn4C)cccc3C(=O)N([C@@H](C)CO)C[C@H]2C)cc1	0.2
COc1ccc(S(=O)(=O)N(C)C[C@@H]2OCCCC[C@@H](C)Oc3ccc(NS(=O)(=O)c4ccccc4)cc3C(=O)N([C@H](C)CO)C[C@@H]2C)cc1	0.5
C[C@@H]1CCCCO[C@@H](CN(C)C(=O)CCCN(C)C)[C@@H](C)CN([C@H](C)CO)C(=O)c2cc(NC(=O)c3ccncc3)ccc2O1	0.1
COc1ccc(NC(=O)Nc2ccc3c(c2)C(=O)N([C@H](C)CO)C[C@@H](C)[C@H](CN(C)C(=O)Cc2ccccc2)OCCCC[C@@H](C)O3)cc1	-0.7
C[C@@H]1CN([C@@H](C)CO)C(=O)c2cccc(NC(=O)Nc3ccccc3)c2O[C@H]1CN(C)S(=O)(=O)c1ccc(F)cc1	-1.6
COc1ccc(S(=O)(=O)Nc2ccc3c(c2)C(=O)N([C@H](C)CO)C[C@H](C)[C@H](CN(C)Cc2ccc(C(=O)Nc4ccccc4N)cc2)OCCCC[C@@H](C)O3)cc1	-1.4
C[C@@H]1CN([C@@H](C)CO)C(=O)Cc2cc(NC(=O)Nc3ccc(F)cc3)ccc2O[C@H]1CN(C)C(=O)Nc1ccccc1	-1.5
C[C@H]1CN([C@@H](C)CO)C(=O)c2cccc(NC(=O)C3CC3)c2O[C@H]1CN(C)Cc1ccc(Cl)c(Cl)c1	0.4
C[C@H]1CN([C@@H](C)CO)C(=O)Cc2cc(N(C)C)ccc2O[C@H]1CN(C)C(=O)Nc1cccc2ccccc12	-0.5
C[C@@H]1CN([C@@H](C)CO)C(=O)c2cccc(NC(=O)Nc3cccc4ccccc34)c2O[C@H]1CN(C)S(=O)(=O)c1ccccc1	0.8
Cc1noc(C)c1S(=O)(=O)Nc1ccc2c(c1)CC(=O)N([C@H](C)CO)C[C@H](C)[C@@H](CN(C)C(=O)NC1CCCCC1)O2	-2.0
O=C(O)C1=C[C@H](c2ccc(C(F)(F)F)cc2)C[C@H](OCc2ccc(CO)cc2)O1	-0.2
COc1ccc(NC(=O)Nc2ccc3c(c2)C(=O)N([C@H](C)CO)C[C@@H](C)[C@@H](CN(C)S(=O)(=O)c2ccc(F)cc2)O3)cc1	0.0
O=C(N/N=C/[C@H](O)[C@@H](O)[C@H](O)[C@H](O)CO)c1ccccc1O	-0.7
O=C(O)CCCCCC(=O)N/N=C/c1cc(Br)cs1	0.5
COc1ccc(NC(=O)Nc2ccc3c(c2)CC(=O)N([C@@H](C)CO)C[C@@H](C)[C@@H](CN(C)C(=O)NC2CCCCC2)O3)cc1	0.2
C[C@@H]1CN([C@@H](C)CO)C(=O)c2cccc(NC(=O)Nc3ccc(F)cc3)c2O[C@@H]1CN(C)C(=O)Nc1ccc(C(F)(F)F)cc1	-0.6
CC(C)NC(=O)Nc1ccc2c(c1)C(=O)N([C@H](C)CO)C[C@H](C)[C@H](CN(C)C(=O)c1ccccc1)OCCCC[C@H](C)O2	0.2
COc1ccc(NC(=O)N(C)C[C@H]2Oc3ccc(NS(=O)(=O)c4ccc(C)cc4)cc3CC(=O)N([C@@H](C)CO)C[C@@H]2C)cc1	0.4
C[C@@H]1CN([C@H](C)CO)C(=O)c2cc(NC(=O)C3CCCCC3)ccc2O[C@@H](C)CCCCO[C@H]1CN(C)Cc1ccc(Cl)c(Cl)c1	-1.3
C[C@H]1CN([C@@H](C)CO)C(=O)c2cccc(NC(=O)Nc3ccc(F)cc3)c2O[C@@H]1CN(C)Cc1ccc(C(F)(F)F)cc1	-1.2
Cc1ccc(S(=O)(=O)Nc2ccc3c(c2)C(=O)N([C@H](C)CO)C[C@@H](C)[C@@H](CN(C)C(=O)c2ccncc2)OCCCC[C@@H](C)O3)cc1	0.6
C[C@H]1CN([C@@H](C)CO)C(=O)c2cccc(NC(=O)c3nc4ccccc4s3)c2O[C@H]1CN(C)C(=O)Nc1cccc2ccccc12	0.8
COc1ccc(NC(=O)Nc2ccc3c(c2)C(=O)N([C@H](C)CO)C[C@H](C)[C@@H](CN(C)C(=O)CCC(F)(F)F)OCCCC[C@@H](C)O3)cc1	1.0
Cc1ccc(S(=O)(=O)N2CCN(Cc3cccc(OCCO)c3)CC2)cc1	-0.7
CCCN(C)C[C@@H]1OCCCC[C@@H](C)Oc2ccc(NS(=O)(=O)c3cn(C)cn3)cc2C(=O)N([C@H](C)CO)C[C@@H]1C	-0.4
Cc1ccc(S(=O)(=O)Nc2ccc3c(c2)C(=O)N([C@H](C)CO)C[C@H](C)[C@H](CN(C)S(=O)(=O)c2ccc(C)cc2)OCCCC[C@H](C)O3)cc1	-1.8
C[C@@H]1CN([C@@H](C)CO)C(=O)Cc2cc(NC(=O)C3CC3)ccc2O[C@@H]1CN(C)Cc1ccncc1	-0.2
C[C@H]1CN([C@@H](C)CO)C(=O)Cc2cc(NC(=O)CCC(F)(F)F)ccc2O[C@@H]1CN(C)Cc1ccc2c(c1)OCO2	0.5
C[C@H](CO)N1C[C@H](C)[C@@H](CN(C)S(=O)(=O)c2ccc(F)cc2)Oc2c(NC(=O)Nc3ccc4c(c3)OCO4)cccc2C1=O	0.6
C[C@H]1CCCCO[C@@H](CN(C)CC2CCCCC2)[C@@H](C)CN([C@@H](C)CO)C(=O)c2cc(NC(=O)C3CCCCC3)ccc2O1	-0.1
COc1ccc(S(=O)(=O)N(C)C[C@@H]2Oc3ccc(NC(=O)Cc4ccccc4)cc3CC(=O)N([C@H](C)CO)C[C@H]2C)cc1	0.0
COc1ccc(CN(C)C[C@H]2OCCCC[C@H](C)Oc3ccc(NC(=O)C4CCCCC4)cc3C(=O)N([C@@H](C)CO)C[C@@H]2C)cc1	0.5
C[C@H](CO)N1C[C@H](C)[C@H](CN(C)Cc2ccc3c(c2)OCO3)Oc2ccc(NC(=O)Nc3ccc4c(c3)OCO4)cc2C1=O	1.0
C[C@@H]1CN([C@H](C)CO)C(=O)c2cc(NS(=O)(=O)c3ccc(Cl)cc3)ccc2O[C@@H](C)CCCCO[C@@H]1CN(C)Cc1ccccc1	-1.2
COc1ccc(NC(=O)N(C)C[C@@H]2Oc3ccc(NS(=O)(=O)c4ccc(Cl)cc4)cc3C(=O)N([C@H](C)CO)C[C@H]2C)cc1	1.4
Cc1noc(C)c1NC(=O)N(C)C[C@@H]1Oc2ccc(NC(=O)c3ccncc3)cc2CC(=O)N([C@@H](C)CO)C[C@@H]1C	0.8
C[C@H]1CCCCO[C@H](CN(C)S(=O)(=O)c2cn(C)cn2)[C@@H](C)CN([C@@H](C)CO)C(=O)c2cc(NS(=O)(=O)c3ccc(Cl)cc3)ccc2O1	0.3
COc1ccc(CN(C)C[C@@H]2OCCCC[C@@H](C)Oc3ccc(NC(=O)Nc4ccc(OC)cc4)cc3C(=O)N([C@@H](C)CO)C[C@@H]2C)cc1	1.2
Cc1ccc(S(=O)(=O)Nc2ccc3c(c2)CC(=O)N([C@@H](C)CO)C[C@H](C)[C@H](CN(C)S(=O)(=O)c2ccccc2)O3)cc1	0.5
C[C@@H]1CCCCO[C@@H](CN(C)C(=O)C2CCCCC2)[C@@H](C)CN([C@H](C)CO)C(=O)c2cc(NC(=O)c3ccncc3)ccc2O1	-0.7
C[C@@H]1CN([C@@H](C)CO)C(=O)CCCn2cc(nn2)CO[C@H]1CN(C)S(=O)(=O)c1cn(C)cn1	1.0
C[C@@H]1CCCCO[C@@H](CN(C)Cc2ccccc2)[C@H](C)CN([C@H](C)CO)C(=O)c2cc(NC(=O)Cc3ccccc3)ccc2O1	0.3
C[C@@H]1CN([C@H](C)CO)C(=O)c2cc(NS(=O)(=O)c3ccc(Cl)cc3)ccc2O[C@H]1CN(C)C(=O)Nc1ccc(C(F)(F)F)cc1	-6.2
C[C@@H]1CCCCO[C@@H](CN(C)S(=O)(=O)c2ccccc2)[C@@H](C)CN([C@@H](C)CO)C(=O)c2cc(NS(=O)(=O)c3cccs3)ccc2O1	-0.8
C[C@@H]1CN([C@@H](C)CO)C(=O)Cc2cc(NC(=O)Nc3ccc(C(F)(F)F)cc3)ccc2O[C@H]1CN(C)Cc1ccncc1	3.1
Cc1noc(C)c1S(=O)(=O)Nc1cccc2c1O[C@@H](CN(C)C(=O)Nc1ccc(F)cc1)[C@@H](C)CN([C@H](C)CO)C2=O	0.4
C[C@H](CO)N1C[C@H](C)[C@H](CN(C)S(=O)(=O)c2cn(C)cn2)Oc2c(NC(=O)c3ccc(-c4nccs4)cc3)cccc2C1=O	-0.7
CC(C)NC(=O)N(C)C[C@@H]1OCCCC[C@H](C)Oc2ccc(NC(=O)c3ccncc3)cc2C(=O)N([C@H](C)CO)C[C@@H]1C	-0.2
C[C@@H]1CCCCO[C@H](CN(C)C(=O)C2CCCCC2)[C@@H](C)CN([C@@H](C)CO)C(=O)c2cc(NC(=O)CCC(F)(F)F)ccc2O1	1.6
CC(C)NC(=O)N(C)C[C@@H]1OCCCC[C@@H](C)Oc2ccc(NC(=O)Nc3ccc4c(c3)OCO4)cc2C(=O)N([C@H](C)CO)C[C@@H]1C	-0.4
C[C@H]1CN([C@@H](C)CO)C(=O)Cc2cc(NS(C)(=O)=O)ccc2O[C@H]1CN(C)CC1CC1	0.6
C[C@H](CO)N1C[C@H](C)[C@@H](CN(C)Cc2ccc(Oc3ccccc3)cc2)Oc2ccc(NC(=O)C3CC3)cc2C1=O	0.9
Cc1ccc(S(=O)(=O)N(C)C[C@H]2Oc3c(NC(=O)Nc4c(C)noc4C)cccc3C(=O)N([C@H](C)CO)C[C@H]2C)cc1	0.2
C[C@H]1CN([C@@H](C)CO)C(=O)c2cc(NC(=O)Cc3ccccc3)ccc2O[C@H]1CN(C)S(=O)(=O)c1ccc(F)cc1	0.0
